HSD17B inh: qHTS Assay for Inhibitors of HSD17B4, hydroxysteroid (17-beta) dehydrogenase 4 | recombinant HSD17B10, NADH fluorescence kinetic; many of its hits are not listed in these tables | 75,000 compounds, 7.6% hits | AID 893, 2007 | 3-hydroxyacyl-CoA dehydrogenase type-2 (Homo sapiens), Q99714 | Potency, µM (top dose mostly 57.1 µM), for the others: at the top dose activity change, negative = inhibition, actives largely listed as inhibitors; active = well fitted inhibition curve with a large enough effect; inconclusive = small, poorly fitted or top-dose-only effect; inactive = no such curve, though single readings can be large or run the other way;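 also: the protocol describes HADH2 (HSD17B10) and not the HSD17B4 of the title; nearly all actives have a fitted effect of over 70% in size; most hits overshoot -100% by far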
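Activity followed as NADH fluorescence increase (ex 360, em 450 nm) every 30 seconds for 4 min, using final 90 uM beta-hydroxybutyryl CoA and 1 mM NAD+. Recombinant His-tagged enzyme, 20 nM, pH 9.0 Tris buffer, 15 min compound preincubation.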
Active calls of the source: *; ? = inconclusive; [ ] = remark or other dose. % is scaled to controls: 0 for no effect and ±100 for the full control effect; potency is read from the fitted curve at half-maximal effect. Some of the compounds tested, so the mix of outcomes need not match the whole.

Molecule,HSD17B inh
Cc1cc(C)c(C#N)c(SCc2ccc(C#N)cc2)n1,-12%
CC(C)c1ccc(NC(=O)C(c2ccc3c(c2)OCO3)N2CCN(C(=O)c3ccco3)CC2)cc1 (stereo unspecified),-3%
O=C(CCCCn1c(=O)[nH]c2ccccc2c1=O)N1CCN(c2cccc(C(F)(F)F)c2)CC1,-10%
CCSC1=NC(=O)/C(=C2/C=Cc3ccccc3N2CC)S1,8%
Cn1c2ccccc2c2ncn(CCCN3CCOCC3)c(=O)c21,32µM*
Cc1nc2sc3c(c2c(=O)[nH]1)CCC3,-29%
N#Cc1c(NC(=O)CSc2ncnc3c2cnn3-c2ccccc2Cl)sc2c1CCCC2,-1%
Cn1nnnc1SCC(=O)Nc1cc(C(C)(C)C)nn1-c1ccccc1,7%
Cc1cc(OC(=O)c2ccc(S(=O)(=O)N(C)C)cc2)cc(=O)o1,-12%
CCCCn1c(SCC(=O)Nc2nnc(C(C)C)s2)nc2c1c(=O)n(C)c(=O)n2C,10%
Cn1c(=O)[nH]c(=O)c2c1nc(CN1CCN(c3ccc(F)cc3)CC1)n2CCN1CCOCC1,4%
O=C(c1ncn[nH]1)N1CCN(c2nc(-c3ccccc3)cs2)CC1,-6%

Part of the list above, with each value named.
compound: CC(C)c1ccc(NC(=O)C(c2ccc3c(c2)OCO3)N2CCN(C(=O)c3ccco3)CC2)cc1 (stereo unspecified)
  HSD17B inh: -3%
compound: O=C(c1ncn[nH]1)N1CCN(c2nc(-c3ccccc3)cs2)CC1
  HSD17B inh: -6%

Additional compounds follow:
Molecule,HSD17B inh
O=C(NCC1CCCO1)NC1(C(F)(F)F)Oc2ccccc2O1 (stereo unspecified),-12%
O=C(Nc1ccc(Br)cc1)c1cnccn1,1%
CCN(CC)C(=O)Oc1ccc(Cl)c2ccccc12,-1%
O=C(O)c1ccc2cccc(Cl)c2c1O,32µM*
Cc1ccc(S(=O)(=O)NCCSc2nnnn2-c2ccc(C(N)=O)cc2)cc1,4%
OCCN1CCN(CCSc2ccccc2)CC1,12%
CCOC(=O)c1[nH]c2ccccc2c1NC(=O)c1nonc1C,1%
C=CCn1c(SCC(=O)Nc2ccc(C(=O)OC(C)C)cc2)nnc1-c1cccs1,?
Cc1cc(=O)oc2cc(NC(=O)CCCC(=O)O)ccc12,25µM*
Cc1cc2oc(=O)cc(CN3CCN(S(=O)(=O)c4ccc5c(c4)OCCO5)CC3)c2cc1C,8%
C/C(Cl)=C/Cn1c(SCc2ccc(Cl)cc2)nc2c1c(=O)[nH]c(=O)n2C,-11%
CCOC(=O)N1CCN(CC(=O)Nc2cc(C)nn2-c2nc3ccccc3s2)CC1,8%
CC(C)(CSc1nncn1/N=C/c1ccco1)NS(=O)(=O)c1ccc(Cl)cc1,5%
CCOC(=O)c1c(NC(=O)CSc2nnc(CN3CCOCC3)n2C)sc2c1CCCC2,12%
Cc1cccc(-c2noc(Cc3ccc(Cl)cc3)n2)c1,-3%
CCN(CC)c1ccc(NC(=O)CSc2nc(C)cc(=O)[nH]2)cc1,7%
CCOC(=O)C1CCCN(c2c(NCCc3ccc(S(N)(=O)=O)cc3)c(=O)c2=O)C1 (stereo unspecified),0%
CCOC(=O)CSc1nc2ccccc2c(=O)n1CCN1CCOCC1,0%
O=C(CSc1nc2c(cnn2-c2ccc(F)cc2)c(=O)[nH]1)N1CCCc2ccccc21,-5%
COC(=O)C1=C(C)N(c2ccc(OC)c(OC)c2)C(=O)C1,8%
COc1cc(CO)cc(Br)c1OCC(=O)O,?
CCCc1nc2oc3c(NCc4ccccn4)ncnc3c2c2c1COC(C)(C)C2,13µM*
CC(=O)Nc1ccccc1-c1ccc(C)o1,9%
Cc1ccccc1-n1c(SCC(=O)NCc2cccs2)nnc1-c1ccncc1,-1%
Cc1noc(C)c1-c1cc(N(C)C)ncn1,8%
C=CCNC(=O)Nc1ccc(OCC)cc1,13%
CC(C(=O)N1CCN(C=O)CC1)N1C(=O)c2ccccc2C1=O (stereo unspecified),-4%
O=C(NC1CCN(Cc2ccccc2)CC1)C1CCCN(c2nnc(-n3cccc3)s2)C1 (stereo unspecified),-1%
CCSc1cc(C2C(C#N)=C(N)OC(C)=C2C(=O)OC)c(C)o1 (stereo unspecified),4%
CCC(C)NC(=O)CN(c1ccc2c(c1)OCO2)S(=O)(=O)c1c(C)n[nH]c1C (stereo unspecified),0%
O=C(O)Cc1nn(Cc2ccc(Br)cc2F)c(=O)c2ccccc12,?
c1cnc2c(c1)ccc1cccnc12,-10%
CCn1c(NCc2cc(OC)ccc2OC)nc2ccccc21,0%
c1ccc(CN2CCC3(CCCc4ccccc43)CC2)cc1,-6%
Cn1c(=O)cc(OCC(=O)Nc2ccccn2)c2ccccc21,-6%
CCOC(=O)c1ccc2c(c1)nc(SCC(=O)N1CCCCC1)n2CC,-7%
Cc1cccc(OCC(O)CN2C(C)(C)CC(O)CC2(C)C)c1 (stereo unspecified),12%
COc1cc(S(=O)(=O)N2CCCCC2)ccc1NC=O,1%
Clc1cccc(Nc2c3c(nc4ncnn24)CCC3)c1,-2%
O=C(c1csc2c1CCCC2)N1CCN(c2ccccc2)CC1,3%
CC(NC(=O)C1CCCN(S(=O)(=O)c2cnc[nH]2)C1)c1ccccc1 (stereo unspecified),5%
O=C(c1ccccc1)N(c1ccccc1)C1C=CS(=O)(=O)C1 (stereo unspecified),-1%
COc1cc(OC)c(C(=O)Nc2ccc(S(=O)(=O)Nc3ncccn3)cc2)cc1OC,-5%
COCCn1nnnc1C(c1cccs1)N1CCN(c2nc3ccccc3s2)CC1 (stereo unspecified),3%
CCN(CCCNC(=O)CCn1c(=O)[nH]c2ccccc2c1=O)c1ccccc1,-9%
COc1ccc(N2CCN(Cc3nc(-c4ccc(Cl)cc4Cl)no3)CC2)cc1,-35%
COC(=O)c1cn(NC(=O)c2ccncc2)c(=O)c2ccccc12,0%
O=C(NC1CCCCC1)C1CCN(c2nnnn2-c2ccccc2)CC1,12%

The closing 3 entries of the part above come first, to join the parts.
Molecule,HSD17B inh
COc1ccc(N2CCN(Cc3nc(-c4ccc(Cl)cc4Cl)no3)CC2)cc1,-35%
COC(=O)c1cn(NC(=O)c2ccncc2)c(=O)c2ccccc12,0%
O=C(NC1CCCCC1)C1CCN(c2nnnn2-c2ccccc2)CC1,12%
C=CCn1c(=O)/c(=C/c2ccc(F)cc2)s/c1=C(\C#N)c1nnc2n1CCCCC2,9%
O=C(Nc1ccc(Cl)cc1)N1CCC(c2nc(-c3cccs3)no2)CC1,9%
Cc1cc(C(=O)CC#N)c(C)n1CC(F)(F)F,3%
CCOC(=O)C1CCCN(C2CC(=O)N(c3cccc(C(F)(F)F)c3)C2=O)C1 (stereo unspecified),-30%
CCn1cc(C2=NOC(C(=O)Nc3c(C)nn(Cc4ccc(F)cc4)c3C)C2)c(C)n1 (stereo unspecified),1%
CCCNc1nc2c(c(=O)[nH]c(=O)n2C)n1Cc1ccc(F)cc1,3%
COC(=O)c1ccccc1S(=O)(=O)N(CCCO)Cc1cc2c(C)ccc(C)c2[nH]c1=O,?
CCc1cccc(NC2c3ccccc3C(=O)N2c2ccc(C)cn2)c1 (stereo unspecified),0%
O=C(CC12CC3CC(CC(C3)C1)C2)NCO,1%
COc1ccc(-c2ccc(SCC(=O)NCc3ccco3)nn2)cc1,-14%
Cc1nnc(NC(=O)c2ccc3c(c2)C(=O)N(CC2CCCO2)C3=O)s1 (stereo unspecified),5%
O=C(c1ccc(F)cc1)C1CCN(C(=O)N2CCOCC2)CC1,11%
C=C(CC(=O)OC)C[C@]1(CC(=O)OC)CC2(CC=C(C)C)C(=O)C(C(=O)c3ccccc3)=C(OC(=O)c3ccc(Br)cc3)C(CC=C(C)C)(C1)C2=O (stereo partly specified),-9%[11.4 µM]
Cc1cc(Nc2cccc(Cl)c2C)n2ncnc2n1,4%
Cc1cccc(C)c1NC(=O)CS(=O)CC(=O)NC1CCN(Cc2ccccc2)CC1 (stereo unspecified),2%
Cc1ccc(-c2nc(NC(=O)CSc3nnc(C)s3)ns2)cc1,10%
CCOc1ccc(-c2nnc(SCc3nnc(-c4ccccc4)o3)n2-c2ccccc2F)cc1,-1%
CCC(C)C(=O)N1CCc2cc(-c3csc(N)n3)ccc21 (stereo unspecified),-8%
COc1ccc(NC(C)=O)cc1NC(=O)CN1CCN(S(=O)(=O)c2ccc(C(C)C)cc2)CC1,0%
O=C(CN1C(=O)c2ccccc2C1=O)Nc1nnc(C2CCCO2)s1 (stereo unspecified),1%
Cc1ccc(NC(=O)c2cc(-c3ccco3)on2)cc1C,25µM*
CC1Cc2cc(/C(O)=C3/C(=O)C(=O)N(CCN4CCOCC4)C3c3cccc(O)c3)ccc2O1 (stereo unspecified),-5%
O=C(Nc1cccc(Cl)c1Cl)c1ccncc1,9%
S=C(c1cccs1)N1CCCC1,-2%
COc1ccccc1OCC(=O)NCc1ccco1,-2%
O=C1CC(c2ccc(F)cc2)Cc2nc(N3CCc4ccccc43)ncc21 (stereo unspecified),?
Cc1ccccc1-c1cncnc1Nc1ccc(F)cc1,-5%
O=C(CC1Sc2ncnn2C1=O)Nc1ccc(Br)cc1 (stereo unspecified),10µM*
Cn1c(=O)cc(SCC(=O)N2CCN(C(=O)c3ccco3)CC2)c2ccccc21,?
Cc1cc(OCC(=O)N2CCOCC2)c(C(C)C)cc1Cl,-5%
CN[C@@H]1[C@H](O[C@@H]2O[C@H](CO)[C@@H](N)[C@H](O)[C@@H]2O)O[C@H]2C[C@@H](N)[C@@H](O[C@H]3[C@@H](O)[C@H](O)[C@H](N)C[C@@H]3N)O[C@H]2[C@H]1O,2%[25.6 µM]
CCCCN(CC)CCCNC(=O)CC1Nc2ccccc2NC1=O (stereo unspecified),25µM*
CN1CCN(CCCNN)CC1,2%[11.4 µM]
O=C(COC(=O)C1CC(=O)N(Cc2ccccc2)C1)Nc1ccc2c(c1)OCO2 (stereo unspecified),3%
O=C(Nc1ccc(CN2CCOCC2)cc1)c1cc2ccccc2oc1=O,2%
CNC(=O)c1cc2c(=O)n3cccc(C)c3nc2n1C,3.2µM*

5 consecutive records from above, for reference:
Molecule,HSD17B inh
O=C1CC(c2ccc(F)cc2)Cc2nc(N3CCc4ccccc43)ncc21 (stereo unspecified),?
Cc1ccccc1-c1cncnc1Nc1ccc(F)cc1,-5%
O=C(CC1Sc2ncnn2C1=O)Nc1ccc(Br)cc1 (stereo unspecified),10µM*
Cn1c(=O)cc(SCC(=O)N2CCN(C(=O)c3ccco3)CC2)c2ccccc21,?
Cc1cc(OCC(=O)N2CCOCC2)c(C(C)C)cc1Cl,-5%

The list goes on.
Molecule,HSD17B inh
COc1ccc(-n2c(=O)c(C)nc3cnc(Oc4cccc(Cl)c4)nc32)cc1,7%
CC1CN(C(=O)CSc2ncnc3sccc23)CC(C)O1 (stereo unspecified),0%
CC(=O)c1c(NCCc2ccccc2)cc(C)oc1=O,-1%
CCN(CC)CCCn1c(=S)[nH]c2ccc(Cl)cc2c1=O,-4%
Clc1ccccc1-c1ccc2ncnc(NC3CCNCC3)c2c1,8%
COc1ccccc1NC(=O)C(C)NS(=O)(=O)c1ccc(F)cc1 (stereo unspecified),1%
CCn1c(CNc2nc(-c3ccccc3)cs2)nnc1SCC(=O)NCc1ccco1,-11%
COc1ccc(OC)c(S(N)(=O)=O)c1,9%
CC(=O)c1cc2c(=O)c3cc(C)ccc3oc2nc1C,?
Cc1nc2cc(NC(=O)Nc3ccc(N4CCOCC4)cc3)ccc2n1C,15%
CCOC(=O)C(Cc1ccccc1)NC(=O)CNC(C)=O (stereo unspecified),27%
CCN(C(C)=O)c1nc(CSc2nnc(NC(C)C)s2)cs1,-15%
COc1cc(OC)cc(-c2cc(NC(C)=O)n[nH]2)c1,2%
C=CCOC(=O)C1=C(C)N=C2SCCC(=O)N2C1c1cccs1 (stereo unspecified),-3%
O=C1CCc2cc(S(=O)(=O)N3CCN(Cc4ccc5c(c4)OCO5)CC3)ccc2N1,5%
O=C(c1ccc(Br)o1)N1CCN=C1SCc1cccc(F)c1,3%
CC(C)CCN1CCNC(=O)C1CC(=O)Nc1ccc(F)cc1 (stereo unspecified),5%
CN(Cc1ccccc1)C(=O)CNC(=O)Cn1cnc2ccccc2c1=O,26%
COc1ccc(N2CCN(CCNC(=O)CCN3C(=O)COc4ccccc43)CC2)cc1,7%
CCOC(=O)C1CCN(C(=O)c2ccc(Cl)c(Cl)c2)CC1,-17%
C=CCNC(=O)Nc1ccc2oc(C)nc2c1,3%
CN(C)c1nc(OCCOC(=O)COc2ccc(Cl)cc2Cl)nc(N(C)C)n1,-23%
O=C(C1CCCO1)N(c1cccc(Cl)c1)C1C=CS(=O)(=O)C1 (stereo unspecified),-5%
CCOC(=O)n1c(=O)oc2cc(S(=O)(=O)N3CCCCC3)ccc21,0%
Clc1ccccc1-c1nc(-n2ccnc2)c2ccccc2n1,-4%
O=C(CSc1ncn[nH]1)NCCOc1ccccc1,11%
O=C(O)c1ccc(CSc2nc3ccccc3o2)cc1,-11%

Assay outcomes from PubChem BioAssay.
